Screening data from PubChem.
ClpP mod – qHTS Assay for Activators of ClpP; purified B. subtilis ClpP, FRET peptide cleavage, 20 min; Potency, µM (top dose mostly 57.5 µM), inactives show at the highest dose activity change, negative = active; 340,000 compounds, 1.9% hits; active = well fitted falling curve with a large enough effect; inconclusive = small, poorly fitted or top-dose-only effect; inactive = no such curve, though single readings can be large or run the other way; further: potency means the concentration at half of the fitted maximal effect; the source files actives as falling curves though it sought activators and does not explain the sign; nearly all actives have a fitted effect of over 65% in size; many hits overshoot -100%
Target sequence (P80244 whole entry, looked up): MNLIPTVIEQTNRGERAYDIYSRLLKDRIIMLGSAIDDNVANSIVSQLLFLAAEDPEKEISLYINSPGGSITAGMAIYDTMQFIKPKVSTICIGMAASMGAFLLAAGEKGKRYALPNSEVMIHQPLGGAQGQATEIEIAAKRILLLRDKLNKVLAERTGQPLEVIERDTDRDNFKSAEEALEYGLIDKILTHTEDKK
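Purified B. subtilis ClpP, 10 microg/mL final in Tris/HCl pH8 with KCl, BSA, glycerol and Tween-20, cleaved an Abz/nitrotyrosine-quenched decapeptide. Fluorescence (ex 320, em 430) was read at 0 and 20 min at room temperature. Delta was normalized to 5.8 microM ADEP and DMSO/no-enzyme controls.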
D2 PAM – human D2 receptor positive allosteric modulation. P14416. DiscoveRx D2 beta-arrestin cells, luminescence, 90 min; 100% = 57 uM dopamine signal. potentiation, % (test concentration not listed). 360,000 compounds, 0.23% hits; active = potentiation of 50% or more; inconclusive = 30% to 50%; inactive = 30% or less;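 further: compound concentration not given in the record; tested on top of an EC20 dose of dopamine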
Target sequence (P14416 whole entry, looked up): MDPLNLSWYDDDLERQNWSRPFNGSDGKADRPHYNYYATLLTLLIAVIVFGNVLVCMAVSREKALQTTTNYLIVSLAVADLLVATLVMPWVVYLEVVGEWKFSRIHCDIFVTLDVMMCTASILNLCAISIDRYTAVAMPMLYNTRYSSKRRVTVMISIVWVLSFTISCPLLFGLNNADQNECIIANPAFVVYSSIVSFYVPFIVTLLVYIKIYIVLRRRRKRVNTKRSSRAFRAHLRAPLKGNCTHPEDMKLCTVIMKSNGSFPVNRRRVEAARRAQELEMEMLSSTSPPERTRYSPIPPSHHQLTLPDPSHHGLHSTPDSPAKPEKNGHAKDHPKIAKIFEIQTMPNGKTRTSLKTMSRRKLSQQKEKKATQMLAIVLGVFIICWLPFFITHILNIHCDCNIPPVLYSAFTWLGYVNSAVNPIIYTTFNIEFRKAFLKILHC
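PathHunter beta-arrestin assay in DiscoveRx D2 cells. Compounds were added with an EC20 of dopamine (50 nM final) for 90 min at 37 deg C. Luminescence was read 1 h after detection reagent, with 57 uM dopamine as the EC100 control.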
An asterisk follows results filed as active; ? = inconclusive.

The opening 13 records as a preview:
SMILES	ClpP mod	D2 PAM
COc1cc(Nc2ccn3nc(-c4ccccc4Cl)cc3n2)cc(OC)c1OC	44%	-2
CCc1nc2ccc(C(=O)NCc3cccs3)cn2c1N(CC)Cc1cccc(Br)c1	-6.4%	-4
CCCC(=O)N1CCC1(C)C(=O)Nc1scc(C)c1C#N (centres undefined)	-0.6%	-8
COCCNC(=O)C1(C)CCCN(C(=O)c2ccccc2OC(F)(F)F)C1 (centres undefined)	-3.9%	-2
C=C1C(=O)[C@]23C[C@H]1CC[C@H]2[C@]1(C)[C@@H](O)CC[C@@](C)(C(=O)O)[C@H]1C[C@@H]3O	0.3%	-5
COc1ccc(NC(=O)c2cc(C3CCCCN3S(C)(=O)=O)on2)c(C)c1 (centres undefined)	-1.3%	0
C#Cc1cccc(Nc2nc(NCc3ccccc3)nc3ccsc23)c1	3.8%	-18
COc1ccc(CN2C[C@@H](CO)O[C@@H](n3cnc4c(NCCO)ncnc43)C2)cc1	-2.6%	-6
CC(O)(c1cccc(F)c1)c1nc(-c2ccncc2)cs1 (centres undefined)	0.3%	-19
COc1ccc(CC(N)c2csc(NC(=O)Nc3ccc(OC)cc3)n2)cc1 (centres undefined)	1.4%	3
COc1cccc(CNc2nc3cc(-c4cnn(Cc5ccccc5)c4)sc3c(=O)n2C)c1	?	-22
CCCNC(=O)C1(C)CCCN(Cc2ccc(Oc3ccccc3)cc2)C1 (centres undefined)	-9.5%	-13
CSc1ccc(NC(=O)C2(C)CCN2C(=O)Cc2ccc(C(C)(C)C)cc2)cc1 (centres undefined)	-0.9%	1

Results, repeating the preview:
SMILES	ClpP mod	D2 PAM
COc1cc(Nc2ccn3nc(-c4ccccc4Cl)cc3n2)cc(OC)c1OC	44%	-2
CCc1nc2ccc(C(=O)NCc3cccs3)cn2c1N(CC)Cc1cccc(Br)c1	-6.4%	-4
CCCC(=O)N1CCC1(C)C(=O)Nc1scc(C)c1C#N (centres undefined)	-0.6%	-8
COCCNC(=O)C1(C)CCCN(C(=O)c2ccccc2OC(F)(F)F)C1 (centres undefined)	-3.9%	-2
C=C1C(=O)[C@]23C[C@H]1CC[C@H]2[C@]1(C)[C@@H](O)CC[C@@](C)(C(=O)O)[C@H]1C[C@@H]3O	0.3%	-5
COc1ccc(NC(=O)c2cc(C3CCCCN3S(C)(=O)=O)on2)c(C)c1 (centres undefined)	-1.3%	0
C#Cc1cccc(Nc2nc(NCc3ccccc3)nc3ccsc23)c1	3.8%	-18
COc1ccc(CN2C[C@@H](CO)O[C@@H](n3cnc4c(NCCO)ncnc43)C2)cc1	-2.6%	-6
CC(O)(c1cccc(F)c1)c1nc(-c2ccncc2)cs1 (centres undefined)	0.3%	-19
COc1ccc(CC(N)c2csc(NC(=O)Nc3ccc(OC)cc3)n2)cc1 (centres undefined)	1.4%	3
COc1cccc(CNc2nc3cc(-c4cnn(Cc5ccccc5)c4)sc3c(=O)n2C)c1	?	-22
CCCNC(=O)C1(C)CCCN(Cc2ccc(Oc3ccccc3)cc2)C1 (centres undefined)	-9.5%	-13
CSc1ccc(NC(=O)C2(C)CCN2C(=O)Cc2ccc(C(C)(C)C)cc2)cc1 (centres undefined)	-0.9%	1
CCCNC(=O)C1(C)CCN(Cc2ccc(OCc3ccccc3)cc2)C1 (centres undefined)	-2.3%	-11
CC(=O)Nc1cc(-c2cccc(C)c2)cn2c(-c3ccc(S(C)(=O)=O)cc3)cnc12	5.2%	2
CC1(C(=O)NS(=O)(=O)c2cccc(C#N)c2)CCN1C(=O)Cc1ccc(-c2ccccc2)cc1 (centres undefined)	0.3%	-4
COC(=O)c1ccc(CC2(C)C(=O)Nc3ccc(OC(F)(F)F)cc32)o1 (centres undefined)	2.0%	-3
CCNC(=O)C1(C)CCCN(C(=O)COCc2ccccc2)C1 (centres undefined)	1.7%	-4
CC(C)c1ccc(Nc2n[nH]c(=S)s2)cc1	1.3%	0
NC(Cc1ccc(Cl)cc1)c1csc(NC(=O)NCC2CCCCC2)n1 (centres undefined)	0.0%	10
OC(Cc1ccccc1Br)c1ncc(-c2cccc(C(F)(F)F)c2)[nH]1 (centres undefined)	-3.7%	-7
NC(c1csc(Nc2nncc3ccccc23)n1)C1CCCCC1 (centres undefined)	-3.8%	-10
COCCNC(=O)C1(C)CCCN(Cc2cccc(F)c2)C1 (centres undefined)	0.2%	-16
CNc1ccc(-c2cccc(C(=O)N3CCOCC3)c2)cn1	-18%	-21
Cc1cccc(C)c1NC(=O)CN1CCN(c2ccc(C(F)(F)F)cn2)CC1	-3.9%	-8

(next part)
SMILES	ClpP mod	D2 PAM
CCNC(=O)C1CCCN(C(=O)c2ccc(OC(F)F)cc2)CC1 (centres undefined)	1.5%	-12
O=CNc1cc(-c2ccc(C(=O)N3CCOCC3)cc2)cn2c(-c3ccc(F)cc3)cnc12	?	-11
Cc1cc(=O)oc2c(N)nccc12	4.9%	-13
CCc1nc2ccc(C(=O)NCCc3c[nH]c4ccccc34)cn2c1N(C)Cc1nccn1C	-4.6%	-3
Cc1cc2nc(-c3ccc(Cl)cc3)c(CC(C)(C)C)n2c(C)c1Br	-3.3%	-6
CN(C)C(=O)c1cccc(-c2cnc3c(NC=O)cc(-c4cc(F)c(F)c(F)c4)cn23)c1	-22%	0
COC(=O)c1cccc(CN2C(=O)C(C)Oc3ccc(C)cc32)c1 (centres undefined)	-1.5%	-9
Cc1ccccc1NC(=O)Nc1nc(CN)cs1	-2.5%	-7
Cc1ccc(NC(=O)CC[C@H]2O[C@@H](n3cnc4c(NC(=O)c5ccccc5)ncnc43)[C@H](O)[C@@H]2O)cc1C	-1.5%	-5
CC1(C(=O)NS(=O)(=O)c2cccs2)CCN1C(=O)Cc1ccccc1 (centres undefined)	1.0%	-5
O=C(Nc1ccc2c(c1)OCO2)c1cc(C2CCCN(C(=O)C3CCCCC3)C2)on1 (centres undefined)	1.5%	1
OC(c1ccccc1)c1ncc(-c2ccc(Oc3ccccc3)cc2)[nH]1 (centres undefined)	-3.5%	-21
COc1ccc(-c2cc(NC(C)=O)c3ncc(-c4ccc(OC)c(OC)c4)n3c2)c(OC)c1	4.1%	0
CCOC(=O)C1=CCC(c2ccc(Cl)cc2)N(S(=O)(=O)c2ccc(C)cc2)C1 (centres undefined)	-4.7%	-4
CC1(C(=O)Nc2cccc(OC(F)(F)F)c2)Cc2c(-c3cccc(C(N)=O)c3)ccnc2O1 (centres undefined)	-0.7%	-7
CC(=O)Nc1ccc(-c2ccnc3c2CC(C)(C(=O)Nc2ccc4c(c2)OCO4)O3)cc1 (centres undefined)	-19%	-30
NC(COCc1ccccc1)c1csc(Nc2nncc3ccccc23)n1 (centres undefined)	-12%	-5
COc1ccc(NC(=O)C2Cc3c(-c4cccc(F)c4)ccnc3O2)cn1 (centres undefined)	-0.9%	-4
CC(=O)Nc1ccc(-c2ccnc3c2CC(C)(C(=O)Nc2cccc(C(C)=O)c2)O3)cc1 (centres undefined)	-24%	2
COc1ccc(S(=O)(=O)NC(=O)C2(C)CCN2C(=O)c2ccccc2CCc2ccccc2)cc1 (centres undefined)	-0.2%	2
CC1(C(=O)NS(=O)(=O)c2cccc(F)c2)CCN1C(=O)Cc1cc(F)ccc1F (centres undefined)	0.5%	1
CC(C)N1CCCC(C)(C(=O)Nc2cccc(Oc3ccccc3)c2)C1 (centres undefined)	-2.9%	-9
COCCNc1nc(NCCOC)c2sc(-c3ccccc3)cc2n1	-9.5%	-13
Cc1nc2c(OCCN3C(=O)c4ccccc4C3=O)cccn2c1N(C)C(=O)CCC1CCCC1	0.7%	-2
CC(C)(C)c1ccc(CC(=O)N2CCC2(C)C(=O)Nc2cccc3cccnc23)cc1 (centres undefined)	-12%	-8

Continued:
SMILES	ClpP mod	D2 PAM
CCOc1ccc(-c2cc(C(=O)Nc3cccc(C(F)(F)F)c3)[nH]n2)c(C)c1	-4.7%	-8
COc1cccc(C=C(C#N)C(=O)c2ccccc2)c1	-4.0%	-5
O=C(/C=C/[C@H]1O[C@@H](n2ccc(=O)[nH]c2=O)[C@H](O)[C@@H]1O)N[C@@H](Cc1ccccc1)C(=O)O	-1.9%	-6
Cc1cccc(S(=O)(=O)NC(=O)C2(C)CCN2C(=O)c2c(C)noc2C)c1 (centres undefined)	-1.2%	-7
Nc1ccc(CC(N)c2csc(Nc3cc(Oc4ccccc4)ncn3)n2)cc1 (centres undefined)	0.1%	-10
CCCCNC(=O)C1(C)CCN1Cc1ccc(C(=O)OCC)cc1 (centres undefined)	2.0%	-10
COCCN1C(=O)CCC1(C)C(=O)NC1CCCC1 (centres undefined)	2.1%	0
OC[C@@H]1CN(Cc2cccs2)C[C@H](n2cnc3c(N4CCN(c5ccccc5)CC4)ncnc32)O1	1.2%	9
O=C(Nc1ccc2c(c1)OCO2)c1cc(C2CCCCN2C(=O)c2ccccc2)on1 (centres undefined)	-1.3%	-13
COc1cc(CN2C[C@@H](CO)O[C@@H](n3cnc4c(N(C)C)ncnc43)C2)cc(OC)c1OC	-0.7%	-7
COc1ccccc1CNC(=O)C1(C)CCCCN1C (centres undefined)	0.1%	-4
O=S1(=O)C[C@H](N2CCCC2)[C@@H](COCc2ccccc2)N1	-9.0%	-7
COc1cccc(NC(=O)C2(C)CCCN2C(=O)C(C)C)c1OC (centres undefined)	-0.7%	-9
C=Cc1ccc(CC2(C)C(=O)Nc3c(Cl)cccc32)cc1 (centres undefined)	0.9%	-1
O=C(NCc1ccc(F)cc1)c1cc(C2CCCCN2S(=O)(=O)Cc2ccccc2)on1 (centres undefined)	-4.7%	-11
COc1ccc(CNC(=O)c2ccc(-c3c(C)noc3C)c3ccoc23)cc1OC	2.1%	-5
Cc1cc(C(=O)N2CCC2(C)C(=O)Nc2cc(C(C)(C)C)nn2C)nn1C (centres undefined)	-1.7%	-1
CC(C)(C(=O)N1CCC1(C)C(=O)NS(=O)(=O)c1cccc(C#N)c1)c1ccccc1 (centres undefined)	3.1%	6
COc1ccc(-c2ccc(C(=O)NCC(C)C)c3occc23)c(C)c1	3.8%	-7
N#CC1C(=O)NC(=O)C(C#N)C12CCCC2 (centres undefined)	0.7%	-1
CCCCNC(=O)C1(C)CCN1C(=O)c1ccccc1Br (centres undefined)	-0.3%	-3
O=C(Nc1nnc([C@@H]2C[C@H](O)[C@@H](CO)O2)s1)NC(c1ccccc1)c1ccccc1	-3.2%	-5
O=c1[nH]c(SCCc2ccccc2)nc2c1CCC2	-1.4%	7
COc1ccc(CC(N)c2csc(Nc3ccc(C(=O)c4ccccc4)cc3)n2)cc1 (centres undefined)	-4.8%	-13
COc1cccc(C(O)c2nc(-c3cccc(C(C)C)c3)cs2)c1 (centres undefined)	0.1%	-3

Next compounds
SMILES	ClpP mod	D2 PAM
CCCNC(=O)c1cc(C2CCCCN2C(=O)CCc2ccccc2)on1 (centres undefined)	-2.6%	3
CS(=O)(=O)Nc1cccc(NC(=O)c2ccc(-c3ccc(F)c(F)c3)c3ccoc23)c1	-28%	-7
Cc1cccc(NC(=O)CNC(=O)[C@H]2O[C@@H](n3ccc(=O)[nH]c3=O)[C@H](O)[C@@H]2O)c1C	0.6%	-1
CCc1nc2ccc(C(=O)Nc3ccc4c(c3)OCC(=O)N4)cn2c1N(C)C(=O)Cc1ccccc1	-1.9%	-1
OC(Cc1cccc(Br)c1)c1ncc(-c2ccccc2C(F)(F)F)[nH]1 (centres undefined)	-3.1%	-4
CCCCN(C)C(=O)c1ccc(Nc2nc(C(N)Cc3ccc(C(F)(F)F)cc3)cs2)nc1 (centres undefined)	-13%	-3
COc1ccc(C(O)c2nc(-c3ccc(C)c(C)c3)cs2)cc1 (centres undefined)	-8.3%	-6
O=C(NC1CCCCC1)C(C1CC1)N1CCc2ccccc2C1 (centres undefined)	-2.4%	-12
CC(=O)NC(c1ccccc1)c1nc(-c2ccc(Cl)cc2)cs1 (centres undefined)	3.9%	-2
CC(C)(C)c1ccc(S(=O)(=O)NC(=O)C2(C)CCN2C(=O)Cc2ccc(Cl)cc2Cl)cc1 (centres undefined)	-0.4%	-2
CC(C)NC(=O)c1cc(C2CCCCN2C(=O)c2ccccc2)on1 (centres undefined)	0.1%	-6
COC(=O)c1ccc2nc(-c3ccco3)c(Cc3ccc(C)cc3)n2c1	5.2%	-6
CCNC(=O)C1(C)CCN(C(=O)c2ccc(OC)cc2)C1 (centres undefined)	1.4%	-9
Cc1ccc(NC(=O)[C@@H]2O[C@H](CO)[C@@H](O)[C@H]2O)cc1C(F)(F)F	1.7%	-7
COc1ccccc1-c1cnc(C(O)c2ccccc2)[nH]1 (centres undefined)	-19%	-10
O=C(CC[C@H]1O[C@@H](n2cnc3c(NC(=O)c4ccccc4)ncnc32)[C@H](O)[C@@H]1O)NCC1CCCCC1	1.9%	-1
CC(C)CC(N)c1csc(NC(=O)C(c2ccccc2)c2ccccc2)n1 (centres undefined)	-1.7%	-5
COc1ccccc1Cc1c(-c2cccc(Br)c2)nc2ccc(Cl)cn12	?	-4
CC1(C(=O)NS(=O)(=O)c2ccccc2OC(F)(F)F)CCN1C(=O)Cc1ccccc1 (centres undefined)	0.1%	3
CCCNC(=O)C1(C)CCCN(C(=O)c2ccc(OC)cc2OC)C1 (centres undefined)	0.0%	-6
CCCNC(=O)c1cc(C2CCCCN2C(=O)c2cc(C(C)(C)C)nn2C)on1 (centres undefined)	-0.3%	1
CC(C)CNC(=O)C1(C)CCCN1Cc1ccccc1OC(F)F (centres undefined)	2.8%	-12

Only part of the results is shown; rates above refer to the full screens.
